YjeE inh – inhibitors of E. coli YjeE (TsaE) | AID 605 | P0AF67 | Potency, µM | purified YjeE, fluorescence polarisation of a bound ADP probe | hit rate 0.05% among 71,000; active = well fitted falling curve; inconclusive = weaker or top-dose-only fall, or a rising curve; inactive = flat or poorly fitted curve;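 further: top concentration of the series not given in the record; excess ADP was the control for the full effect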
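Fluorescence polarization of a BODIPY Texas Red–ADP probe (2 uM) bound to purified YjeE (10 uM) was read after 15 min room-temperature incubation with compounds. Loss of polarization marks inhibitors; ADP serves as titrated control.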
PK Bst – alters activity of Bacillus stearothermophilus pyruvate kinase; hit rate 1.2% among 51,000; Potency, µM; partly purified Bacillus stearothermophilus pyruvate kinase, luminescence ATP production; ribose 5-phosphate activator present at AC10; in the data active means potency below about 11 µM; inconclusive means mostly about 12 µM to 25 µM; inactive means weaker than that;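 the screen sought inhibitors and activators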;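 further: potency means the concentration at half of the fitted maximal effect; scaled between full activation by ribose 5 phosphate and full inhibition by luteolin; about four in five hits inhibit and the cells do not say which; series up to 57 µM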
* = called active by the depositor; i = inactive; / = no result given. Some of the compounds tested; count on the stated rates, not on these rows.

entry | Compound | YjeE inh | PK Bst
1 | Cc1cccc(N2CCN(C(=O)C3CCN(S(=O)(=O)c4cccc5nsnc45)CC3)CC2C)c1 (stereo not drawn) | i | >57
2 | CCCOC(=O)C1=C(C)NC2=C(C(=O)CC(C)(C)C2)C1c1ccc(N(C)C)cc1 (stereo not drawn) | i | /
3 | Cc1cc2oc3c(c(=O)c2cc1C)C(c1ccc(F)cc1)N(CCCN1CCOCC1)C3=O (stereo not drawn) | i | /
4 | O=C(Cc1cccs1)Nc1ccccc1NC(=O)Cc1cccs1 | i | /
5 | CCc1nnc(NC(=O)CSc2nnc(CSc3nc(C)cc(C)n3)o2)s1 | i | >57
6 | O=C(CN1CCN(c2ccccn2)CC1)NCCc1ccccc1 | i | >57
7 | CC(C)COC(=O)n1c(=O)oc2cc(S(=O)(=O)N3CCCCC3)ccc21 | i | >57
8 | Cc1nc(NCc2ccccc2)c2nc(-c3ccccc3)n(CCCN(C)C)c2n1 | i | /
9 | Nc1nc2n(n1)C(c1cccc(Br)c1)CC(c1ccc(F)cc1)N2 (stereo not drawn) | i | /
10 | CCOC(=O)N(C)OC(=O)Nc1ccc(Cl)c(Cl)c1 | i | /
11 | CN(C)c1ncc2nc(-c3ccc(Cl)cc3)c(=O)n(-c3ccccc3)c2n1 | i | /
12 | COc1cccc(Nc2ncc3nc(-c4ccccc4)c(=O)n(C[C@H]4CCCO4)c3n2)c1 | i | /
13 | O=C(O)CC1CCS(=O)(=O)C1 (stereo not drawn) | i | >57
14 | COc1ccc(NC(=O)CCN2CCN(S(=O)(=O)c3cc(Cl)ccc3OC)CC2)cc1 | i | >57
15 | O=C(O)CCN1Cc2ccccc2C1=O | i | >57
16 | O=C(c1ccc(N2C(=O)CCC2=O)cc1)N1CCN(c2ccccc2)CC1 | i | >57
17 | O=C(O)c1ccccc1OCCOc1ccccc1C(=O)O | i | >57
18 | Cn1c(=O)c2c(nc(N3CCNCC3)n2Cc2cccc3ccccc23)n(C)c1=O | i | >57
19 | CCCNC(=O)c1nc2ncc(Br)cn2n1 | i | >57
20 | COCC(=O)N1CCC2(CC1)CCN(C(=O)NC(C)C)CC2 | i | /
21 | CN1CCCCc2c1nc1ccccc1c2N (tested in a mixture with another compound) | i | /
22 | Cc1nn(C)cc1/C=N/O | / | >26
23 | Cc1o[nH]c(=O)c1CC[C@H](N)C(=O)O | i | /
24 | COc1ccc(OC)c(C2/C(=C(\O)c3c(C)nc4ccccn34)C(=O)C(=O)N2CCCN(C)C)c1 (stereo not drawn) | i | >57
25 | CCCn1cnc2c(c1=O)c1nc3ccccc3nc1n2Cc1ccccc1OC | i | >57
26 | CC1(C)C(=O)C2(CCCC2)C(=O)OC1c1ccco1 (stereo not drawn) | i | >57
27 | CCOC(=O)N1CCC(NC(=O)CCc2cn(C)c3ccccc23)CC1 | i | >57
28 | CCOC(=O)c1cc2c(ccn2C)n1CC(=O)N1CCN(c2ccccc2OC)CC1 | i | >57
29 | COc1cccc(C2CC(c3ccccc3OC)n3ncnc3N2)c1 (stereo not drawn) | i | /
30 | CCN(CC)C(=O)c1sc(NC(=O)c2ccoc2C)c(C(=O)OC)c1C | i | /
31 | COc1ccc(C(c2sc3nc(C)nn3c2O)N2CCCCC2)cc1 (stereo not drawn) | i | /
32 | CC1(C)Cc2noc(N)c2C(C)(C)N1OC(=O)c1ccccc1 | i | >57
33 | Cc1ccc(S(=O)(=O)Cn2nnnc2C(c2ccc(F)cc2)N2CCC(C(N)=O)CC2)cc1 (stereo not drawn) | i | /
34 | COc1ccc(-c2nnc(SCc3ccccc3)n2N)cc1 | i | >57
35 | COc1ccc(CCNC(=O)c2cc(-c3ccccc3)on2)cc1OC | i | >57
36 | CCCc1cc(=O)[nH]c(Nc2ccc(N3CCCCC3)cc2)n1 | i | >57
37 | COc1ccccc1NC(=O)N1CCCC1C(=O)Nc1nnc(C(C)C)s1 (stereo not drawn) | i | >57
38 | O=C(CCCN1C(=O)CCC1=O)Nc1cccc(C(F)(F)F)c1 | i | >57
39 | COC(=O)c1sc(S(=O)(=O)Nc2ccc3cn[nH]c3c2)c(C(=O)OC)c1C | i | >57
40 | COc1ccc(C)cc1NC(=O)CN1CCN(S(=O)(=O)c2ccc(F)cc2)CC1 | i | >57
41 | CC(C)N(C)C1CCN(C(=O)Nc2ccc(Cl)c(Cl)c2)CC1 | i | >57
42 | CCc1ccc(CCC(=O)Nc2nnc(CC)s2)o1 | i | >57
43 | N[C@H](C(=O)O)[C@H](O)C(=O)O | i | /
44 | Cc1ccccc1-n1c(=O)cc(N2CC(C)OC(C)C2)[nH]c1=O (stereo not drawn) | i | >57
45 | Cc1ccc(C2=NCCNC2=O)c(C)c1 | i | >57
46 | O=c1cc(O)cc(/C=C\c2ccc(O)c(O)c2)o1 | i | /
47 | O=C(c1cnccn1)N1CCC2(CCCN(C(c3ccccc3)c3ccccc3)C2)CC1 | i | /
48 | CCC(Sc1nc2ccccc2c(=O)n1CC1CCCO1)C(=O)NCc1cccnc1 (stereo not drawn) | i | >57
49 | O=C(c1ccco1)N1CCC2(CCCN(C(c3ccccc3)c3ccccc3)C2)CC1 | i | /
50 | CC(C)(C)NC(=O)NC(=O)Cn1cc(C(F)(F)F)ccc1=O | i | >57
51 | O=C(NCCO)c1ccc(-c2nnc(N3CCOCC3)c3ccccc23)cc1 | i | /
52 | N#Cc1cccc(NC(=O)N2CCC3(CC2)CCN(C(=O)c2csnn2)CC3)c1 | i | /
53 | CC(C)c1[nH]nc2c1C(C(C)C)C(C#N)=C(N)O2 (stereo not drawn) | i | >57
54 | [O-][n+]1onc2c1CCC1N(O)C(c3ccccc3)CC21O (stereo not drawn) | i | >11
55 | CSc1cccc(NS(=O)(=O)c2cccc3nsnc23)c1 | i | /
56 | COC(=O)c1c(C)oc2ccc(NS(=O)(=O)c3cccs3)cc12 | i | >57
57 | Cc1cc(C)cc(N(CC(=O)NCC2CCCO2)C(=O)CCC(=O)Nc2cc(C)on2)c1 (stereo not drawn) | i | >57
58 | O=C(c1n[nH]c(=O)c2ccccc12)N1CCN(c2ccccc2Cl)CC1 | i | >57
59 | O=C(NCC1CCCO1)C1CCN(CC2CCCCC2)CC1 (stereo not drawn) | i | >57
60 | CNC1=C(Br)C(=O)c2ccncc2C1=O | i | /

Remaining list, next part:
entry | Compound | YjeE inh | PK Bst
61 | COc1ccc(-c2nnn(CC(=O)N(C3CCCC3)C(C)C(=O)NC3CCCC3)n2)cc1OC (stereo not drawn) | i | >57
62 | Cc1cc(C(=O)CSC(C)c2nc3ccccc3c(=O)[nH]2)c(C)n1C (stereo not drawn) | i | >57
63 | O=C(CCCn1c(SCC(=O)NC2CCCCC2)nc2ccccc2c1=O)NCC1CCCO1 (stereo not drawn) | i | >57
64 | CCOC(=O)N1CCN(c2ccc3nnnn3n2)CC1 | i | /
65 | CCOc1ccc(CC2S/C(=N/c3ccccn3)NC2=O)cc1 (stereo not drawn) | i | >57
66 | COC(=O)COc1ccc(S(=O)(=O)NCCC2=CCCCC2)cc1 | i | >57
67 | O=C(Nc1ccc(S(=O)(=O)N2CCCC2)cc1)c1ccc(CN2CCOCC2)cc1 | i | >57
68 | CCC(Sc1nc2n[nH]c(C)c2c(=N)n1-c1cccc(Cl)c1)C(=O)NCCOC (stereo not drawn) | i | i
69 | CCSC1=C(C#N)C(c2cccs2)C(C(=O)OC)=C(C)N1 (stereo not drawn) | / | >26
70 | COC(=O)c1ccc(NC(=O)CSc2nnc(-c3ccncc3)n2N)cc1 | i | >57
71 | Cn1c(=O)c2ncn(CC(=O)NCCOc3ccccc3)c2n(C)c1=O | i | >57
72 | COc1ccc2c(c1)OC(O)(C(F)(F)C(F)F)CC2=O (stereo not drawn) | i | /

Entries of single compounds from above:
Cc1ccc(C2=NCCNC2=O)c(C)c1 in the list: YjeE inh: i; PK Bst: >57
CCCn1cnc2c(c1=O)c1nc3ccccc3nc1n2Cc1ccccc1OC in the list: YjeE inh: i; PK Bst: >57
Cc1ccccc1-n1c(=O)cc(N2CC(C)OC(C)C2)[nH]c1=O (stereo not drawn) in the list: YjeE inh: i; PK Bst: >57

Continued:
entry | Compound | YjeE inh | PK Bst
73 | CCOC(=O)CNC(=O)c1cn(C)c(=O)c2cc(OC)c(OC)cc12 | i | >57
74 | O=C(NCC(=O)N(c1ccc2c(c1)OCCO2)C(C(=O)NC1CCCC1)c1ccco1)c1ccco1 (stereo not drawn) | i | >57
75 | CCOc1ccccc1NC(=O)CCCc1nc2ccccc2c(=O)[nH]1 | i | >57
76 | CCOC(=O)C1CCN(C(=O)CN(c2ccc(OC)cc2)S(=O)(=O)c2c(C)nn(C)c2C)CC1 | i | /
77 | CCC(=O)Nc1nnc(Cc2ccccc2)s1 | i | >57
78 | O=C(NCCCN1CCOCC1)c1cc(-c2ccc3c(c2)OCO3)nc2ccccc12 | i | /
79 | Cc1ccc(C)c(CSc2nnc(CCN)o2)c1 | i | >57
80 | O=C(CC(SCCO)c1ccc2c(c1)OCO2)c1ccco1 (stereo not drawn) | i | /
81 | CCn1c(COc2ccccc2C)nnc1SCC(=O)Nc1ccc2c(c1)OCCO2 | i | >57
82 | CC1CCCCN1C(=O)c1cc(F)c(F)cc1Cl (stereo not drawn) | i | /
83 | CCCc1cc(=O)[nH]c(SCC(=O)N(C)Cc2ccccc2)n1 | i | >57
84 | O=C(C1CCC1)N1CCC(c2nc3c(nnn3Cc3c(F)cccc3Cl)c(=O)[nH]2)CC1 | i | >57
85 | C=CCn1c(N)c(C(=O)Nc2ccccc2)c2nc3ccccc3nc21 | / | >26
86 | CCSc1nnc(-c2ccccc2NC(C)=O)c(=O)[nH]1 | i | >57
87 | O=P(O)(O)O[C@@H]1O[C@H](CO)[C@@H](O)[C@H](O)[C@@H]1O | i | /
88 | O=c1c2ccccc2c(/C=N/c2ncn[nH]2)c(O)n1Cc1ccccc1 | i | >57
89 | CCOC(=O)CN1C(=O)C(O)(CC(=O)c2cccc(OC)c2)c2ccccc21 (stereo not drawn) | i | >57
90 | CC1=C(C(=O)NCc2ccco2)C2(CCC(C)CC2)OC1=O (stereo not drawn) | i | /
91 | CC(C)(C)NC(=O)Cn1cc(C#N)c2cc(Br)ccc21 | i | >57
92 | COc1cc2cc(CN(Cc3nnnn3C3CCCC3)C3CCCC3)c(=O)[nH]c2cc1OC | i | >57
93 | CC(C)c1nc(SCc2c(F)cccc2Cl)c2c(=O)n(C)c(=O)n(C)c2n1 | i | /
94 | Cc1cc2c(c(=O)n1C)C(Cc1ccccc1)C(C#N)=C(N)O2 (stereo not drawn) | i | >57
95 | COc1ccccc1C(=O)Nc1cccc(N(C)S(C)(=O)=O)c1 | i | >57
96 | Cc1occc1C(=O)Nc1cccc(Cn2cccn2)c1 | i | >57
97 | O=C(CSc1nc(O)cc(=O)n1-c1ccccc1)N1CCCCC1 | i | >57
98 | Cc1ccccc1N(CC(=O)Nc1ccccc1C(=O)O)S(C)(=O)=O | i | /
99 | COCCN1Cc2cccc(C(=O)Nc3ccc(S(=O)(=O)N4CCCCCC4)cc3)c2C1=O | i | >57
100 | COC(=O)c1ccc(C)c(NS(=O)(=O)c2ccc3c(c2)OCCO3)c1 | i | /
101 | COc1ccccc1N1CCN(CCCCNC(=O)c2ccc(-c3ccc(C(C)=O)cc3)cc2)CC1 | i | /
102 | Cc1nc2cnc(N3CCN(C)CC3)nc2n(CCC#N)c1=O | i | /
103 | Cc1ccc(-c2nnc(SCC(=O)Nc3nc4c(s3)CCCC4)n2C)cc1 | i | >57
104 | COc1cc2c(cc1OC)C(c1ccc3c(c1)OCO3)C1=C(CC(C)(C)CC1=O)N2 (stereo not drawn) | i | >57
105 | Cn1c(SCC(=O)NCc2ccco2)nnc1-c1ccc(S(=O)(=O)N2CCOCC2)cc1 | i | >57
106 | CCOC(=O)N1CCC(c2cc(=O)n3[nH]c(C)c(-c4ccc(F)cc4)c3n2)CC1 | i | /
107 | CCOc1ccc(/C(O)=C2/C(=O)C(=O)N(c3cc(C)on3)C2c2ccc(C(=O)OC)cc2)cc1 (stereo not drawn) | / | >26
108 | COC(=O)C1=CNC=C(C(=O)OC)C1c1ccccc1Cl | i | >57
109 | CN(CCC#N)CC(=O)Nc1ccc(NC(=O)CN(C)CCC#N)cc1 | i | >57
110 | c1ccc(Oc2ccc(-n3cnnn3)cc2)cc1 | i | /
111 | O=C(COc1ccccc1)Nc1nc(-c2ccc(S(=O)(=O)N3CCOCC3)cc2)cs1 | i | >57
112 | Cc1ccc(S(=O)(=O)N(Cc2nccn2C)C(C)C)cc1 | i | >57
113 | Cc1ccc(CCNC(=O)C2CCC(=O)N2C2CCCC2)cc1 (stereo not drawn) | i | >57
114 | O=S(=O)(N1CCOCC1)N1CCCN(S(=O)(=O)N2CCOCC2)CC1 | i | >57
115 | Cc1cc(C)c2c(N=CN(C)C)c(C(=O)N3CCN(c4ncccn4)CC3)sc2n1 | i | >57
116 | C/C(Cl)=C/Cn1c(SCC(C)C)nc2c1c(=O)[nH]c(=O)n2C | i | >57
117 | COCCCNC(=O)CN(c1ccc(OC)cc1)S(=O)(=O)c1ccc(NC(C)=O)cc1 | i | /
118 | CCCCNC(=O)CC1N=C2c3ccccc3N=C(SCC(=O)Nc3ccccc3OC)N2C1=O (stereo not drawn) | i | >57
119 | CCc1c(C(=O)NCc2ccccc2Cl)[nH]c(C)c1C(C)=O | i | >57
120 | Cn1cccc1CNC(=O)Nc1ccc(Cl)cc1 | i | >57

Molecules above with a CF3 group, in the order listed:
entry | Compound | YjeE inh | PK Bst
38 | O=C(CCCN1C(=O)CCC1=O)Nc1cccc(C(F)(F)F)c1 | i | >57
50 | CC(C)(C)NC(=O)NC(=O)Cn1cc(C(F)(F)F)ccc1=O | i | >57
